# Screening data (PubChem BioAssay)
# Sa growth inh: S. aureus growth inhibition at 42 and 30 °C, primary screen, LtaS inhibitor project, RN4220, two temperatures. relative growth, % (no concentration beside the values). AID 720641, 2013. OD600, 20 h, 42 °C; active compounds read low. 170,000 compounds, 0.53% hits;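 active = growth at 42 °C up to 50% and 20 or more points under that at 30 °C, or under 10% at both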;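 note: 300 nL library stock went into each well; scaled to the means of positive and negative controls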
# HCMV UL50-53 inh: inhibitors of HCMV UL50-UL53 interaction, biochemical, HTRF; 190,000 compounds, 0.15% hits; normalized percent inhibition; AID 1918969, 2023; HCMV UL50-UL53 nuclear egress complex (human cytomegalovirus); inhibition, % (concentration not given with the values);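 active = both replicates at 50% or more, plus weaker picks with an unusually low signal ratio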;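 note: stock transfer was 100 nL into about 20 µL; 0% = negative control wells and 100% = wells with untagged competitor protein; inactives centre near -12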
# GIV Gai3 FP: inhibitors of GIV peptide binding to Galpha-i3, primary screen, biochemical, fluorescence polarization, FITC-GIV GBA peptide, rat Galphai3. 90 min; active compounds read low; scaled: aluminum fluoride 0%, vehicle 100%. Guanine nucleotide-binding protein G(i) subunit alpha-3 (Rattus norvegicus), P08753. percent of control (FP), % (test concentration not listed). 210,000 compounds, 0.42% hits;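 active = replicate mean at 85% of control or lower, very high polarization wells dropped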;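 note: lower values mean more displacement of the GIV peptide from Galpha-i3; wells of about 15 µL received 100 nL stock; the first replicate is given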
# Target sequence (P08753 whole entry, looked up): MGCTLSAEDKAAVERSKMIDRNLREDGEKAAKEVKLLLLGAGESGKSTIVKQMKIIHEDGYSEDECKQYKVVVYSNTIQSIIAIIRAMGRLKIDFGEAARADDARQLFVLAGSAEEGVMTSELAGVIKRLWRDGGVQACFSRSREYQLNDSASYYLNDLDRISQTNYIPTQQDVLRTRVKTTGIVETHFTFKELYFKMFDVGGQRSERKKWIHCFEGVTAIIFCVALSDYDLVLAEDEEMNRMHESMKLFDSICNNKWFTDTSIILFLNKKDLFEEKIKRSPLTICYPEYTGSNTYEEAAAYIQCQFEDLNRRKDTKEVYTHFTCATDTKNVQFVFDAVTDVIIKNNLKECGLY
# Sa growth inh second temp: also measured in Sa growth inh; calls as there; relative growth, %; measured here: growth at 30 °C;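 optical density after 20 h as mean of two plates; 100% = untreated growth and lower means inhibition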
# Starred values were filed as active, the others as inactive; / = not tested or not shown; & = joins results of further samples.
# Value order – Sa growth inh	Sa growth inh second temp	HCMV UL50-53 inh	GIV Gai3 FP
COC(=O)c1cc(CSc2nnc(Nc3ccc(C)cc3C)s2)oc1C
 : 94	98	-31	/
Cc1ccc(CCSCC(=O)O)cn1
 : 105	87	-3	/
CC(=O)NC1(NC(C)=O)CC(c2ccccc2)N(C)CC1C (centres undefined)
 : 99	86	-16	97
Cc1cc(C)c2oc(C(=O)Nc3ccc(S(=O)(=O)N4CCCCCC4)cc3)cc(=O)c2c1
 : 101	82	-28	104
S=c1[nH]ncn1/N=C/c1ccccc1
 : 76	94	-4	106
CC1=CC(C)(C)Nc2ccc(OC(=O)c3ccco3)cc21
 : 86	45	-12	101
CCOc1ccccc1CNC(=O)CCSCc1ccccc1Cl
 : 90	95	-1	111
CC(=O)Nc1ccc(C=Nc2ccc(C(C)C)cc2)cc1
 : 86	89	-4	106
COc1ccc(N=C(NC#N)Oc2ccccc2)cc1
 : 106	71	-5	97
Cn1cc(Br)cc(Br)c1=O
 : 94	88	4	109
Cn1c(C(=O)N2CCCc3ccccc32)cc2c(=O)oc3ccccc3c21
 : /	/	-8	103
CCOC(=O)C1CCN(C(=O)c2cccc(C(=O)N3CCC(C(=O)OCC)CC3)c2)CC1
 : 108	107	-10	105
Cc1cc(C(=O)Nc2ccc(Cl)cc2)c2c(C)nn(-c3ccccc3)c2n1
 : 105	90	/	102
Cc1cc(C(=O)N(CCC#N)Cc2ccccc2)no1
 : 105	78	-22	99
CCOc1ccc(CN2CCN(S(=O)(=O)c3ccc(Cl)cc3)CC2)cc1
 : 105	86	-18	101
O=c1c2c(-c3ccccc3)csc2ncn1CC1CCCO1 (centres undefined)
 : /	/	-16	102
Cc1cc(C(=O)NCc2ccc(S(N)(=O)=O)cc2)c(C)o1
 : 106	107	1	/
CCOc1ccccc1NC(c1nnc(-c2ccccc2)o1)c1ccc(F)cc1Cl (centres undefined)
 : 81	87	-3	102
Cc1ncc(C(=O)NCc2ccccc2)c(C)n1
 : /	/	-5	106
CCc1ccc(CNC(=O)c2sc3ncnc(N(C)C4CCCCC4)c3c2C)cc1
 : 135	97	/	100
CN1/C(=C\C=N\NS(=O)(=O)c2ccccc2)C(C)(C)c2ccccc21
 : 107	93	-42	/
Cc1cc(C)c2c(N)nsc2n1
 : 84	90	-4	/
CSc1nc(N)n(-c2ncccc2C(F)(F)F)n1
 : 98	90	-24	102
Cc1cc(-c2csc(NC(=O)C3CC3)n2)c(C)n1-c1ccc(F)cc1
 : 90	74	-15	/
CCCCC(=O)Nc1sc2c(c1C(N)=O)CCC2
 : 103	90	4	/
Cc1ccc(NC(=O)c2nnc(SCC(=O)NCc3ccccn3)s2)cc1
 : /	/	-10	95
CC1=N/C(=C/c2ccccc2)C(=O)O1
 : 92	84	-14	94
O=C(c1cccnc1)N1N=C2CCCCC2C1(O)C(F)(F)F (centres undefined)
 : 90	86	-26	101
O=C(c1ccc(S(=O)(=O)c2ccc(Br)cc2)nc1)N1CCN(c2ccccn2)CC1
 : /	/	-22	102
CCOc1ccccc1N(C)C(=O)COc1cc(=O)n(C)c2ccccc12
 : 91	84	/	96

# Molecules from the list above with a cyano group (2):
# Value order – Sa growth inh	Sa growth inh second temp	HCMV UL50-53 inh	GIV Gai3 FP
COc1ccc(N=C(NC#N)Oc2ccccc2)cc1
 : 106	71	-5	97
Cc1cc(C(=O)N(CCC#N)Cc2ccccc2)no1
 : 105	78	-22	99

# Sorted by length of the SMILES (ascending): some entries from above.
# Value order – Sa growth inh	Sa growth inh second temp	HCMV UL50-53 inh	GIV Gai3 FP
Cc1ncc(C(=O)NCc2ccccc2)c(C)n1
 : /	/	-5	106
O=c1c2c(-c3ccccc3)csc2ncn1CC1CCCO1 (centres undefined)
 : /	/	-16	102
Cn1c(C(=O)N2CCCc3ccccc32)cc2c(=O)oc3ccccc3c21
 : /	/	-8	103

# Next structures:
# Value order – Sa growth inh	Sa growth inh second temp	HCMV UL50-53 inh	GIV Gai3 FP
COC(=O)c1sc(-c2ccc(Cl)cc2)nc1C
 : /	/	-26	100
COc1ccccc1N1CCN(CCCCN2C(=O)c3ccccc3C2=O)CC1
 : /	/	-25&-39	104
O=C(NCCC(c1ccccc1)c1ccccc1)c1cnc2ccccn2c1=O
 : 87	86	/	106
CCOC(=O)N1CCN(C(=O)CCC(=O)c2ccc(OC)cc2)CC1
 : 96	79	2	108
COc1ccc(-c2c3c(nc4c(C#N)c(C)n(-c5ccccc5)c24)CCC3)cc1
 : 89	83	/	103
O=C(Oc1ccccc1)c1ccccc1F
 : 114	87	-3	103
CC(C)c1ccc(CNc2nc3nc(CN4CCOCC4)cc(=O)n3[nH]2)cc1
 : /	/	-16	98
Cc1cccc(C(=O)NCCc2nc3ccccc3n2Cc2ccc(Cl)cc2)c1
 : 103	88	-21	99
C/C(=C\C(=O)C(F)(F)F)NCc1ccco1
 : 75	91	-23	/
O=C1CCC(C(=O)N(CC2CCCO2)C2CCS(=O)(=O)C2)=NN1c1c(F)c(F)cc(F)c1F (centres undefined)
 : 90	94	-16	/
COC(=O)c1ccc(Cn2nnc3sc4c(c3c2=O)CCCC4)cc1
 : 100	87	-25	101
COc1ccc(S(=O)(=O)N(CC(=O)Nc2ccc(C)cc2)c2ccc(C)cc2)cc1OC
 : 111	87	/	104
CCOc1ccc(C(=O)Nc2ccc3nc(N(CC)CC)cc(C)c3c2)cc1
 : 92	93	-4	97
CCc1ccc2[nH]c(C(=O)Nc3ccc(C(F)(F)F)c(C#N)c3)cc2c1
 : 75	55	-48	98
COc1ccc(NC(=O)Cn2c(SCc3ccc(C)cc3)nc3cccnc32)c(OC)c1
 : 91	83	/	100
O=C(NCc1ccccc1F)C1CCN(c2nn3cc(-c4ccc(F)cc4)nc3s2)CC1
 : 109	101	/	107
Cc1cccc(CNC(=O)Cn2c(-c3cccs3)cc3ccccc32)c1
 : 114	107	/	104
CC(C)CCNC(=O)c1cc(=O)c2ccccc2[nH]1
 : 100	102	-11	/
CNC(=O)c1cnc2sc(N3CCC(C)CC3)nn2c1=O
 : 86	93	/	99
O=C(O)c1ccccc1N(Cc1ccccc1)C(=O)c1ccco1
 : 90	100	11	/
Cc1cc(C)cc(NC(=O)C2CCCN(c3ccc(-c4ccccc4)nn3)C2)c1 (centres undefined)
 : /	/	-11	100
CC(C)CN1C(=O)c2ccccc2C(C(=O)NCc2cccs2)C1c1cccs1 (centres undefined)
 : 73	82	-25	99
CCCNC(=O)c1ccc2nc(CCc3ccccc3)oc2c1
 : 90	91	/	101
Cc1c(Cl)cccc1NC(=O)c1cc(S(=O)(=O)N2CCCCC2)cn1C
 : 102	87	/	100
COC(CNC(=O)c1ccc(/C=C2\Oc3ccccc3N(Cc3cccc(F)c3)C2=O)cc1)OC
 : 111	84	/	101
Cc1ccc(-n2cccn2)cc1
 : 122	90	-19	107
Cc1cc(C)c(S(=O)(=O)N2CCC(n3c(C(F)(F)F)nc4cccnc43)CC2)c(C)c1
 : 96	87	/	99
O=C(C1CCCN(c2nc3cccnc3s2)C1)N1CCN(c2cccc(Cl)c2)CC1 (centres undefined)
 : /	/	-30	104
Cc1ccc(C(CC(=O)N2CCCC2)c2ccccc2)c(O)c1 (centres undefined)
 : 112	100	17	97
Cc1ccc(NC(=O)c2c(-c3ccccc3)nnc3ccccc23)cc1F
 : 92	87	-9	97

# Additional entries
# Value order – Sa growth inh	Sa growth inh second temp	HCMV UL50-53 inh	GIV Gai3 FP
Cc1ccc2c(CN3CCN(C(=O)c4ccc(F)cc4)CC3)cc(=O)oc2c1
 : 102	59	-16	101
N#CC1=C(N)Oc2cc(N)ccc2C12C(=O)Nc1ccccc12 (centres undefined)
 : /	/	2	146
O=C(Nc1c(C(=O)Nc2ccc(Cl)cc2)oc2ccccc12)c1cc(-c2ccccc2)on1
 : /	/	-26	103
Cn1c(SC/C=C/c2ccccc2)nc2sc3c(c2c1=O)CCCC3
 : 71	76	/	113
CC(NC(N)=O)C(=O)N1CC=C(c2ccccc2)CC1 (centres undefined)
 : 78	91	-25	/
CCN1CCN(C(=O)CCCn2c(=O)[nH]c3cc(Cl)ccc3c2=O)CC1
 : 104	94	-15	97
Cn1c(=O)n(CC(=O)O)c(=O)c2c1nc1n2CCN1c1ccc(Cl)cc1
 : 99	87	-17&12	104&99
CC(=O)Nc1c(C)nn(-c2ccccc2)c1N1CCC(C(=O)NCc2ccc(Cl)cc2)CC1
 : 97	92	/	102
Cc1cccc(NC(=O)CSc2nc3ccc(NC(=O)CCc4ccccc4)cc3s2)c1
 : 106	85	-23	99
FC(F)(F)c1cccc(Cn2c(-c3cscn3)nc3ccccc32)c1
 : 107	96	-8	105
Cc1c(Cl)cccc1N=C1NC(=O)CS1
 : 96	73	-8	104
COc1cc(-c2nnc(SCc3cn4cc(Cl)ccc4n3)o2)cc(OC)c1OC
 : 94	94	-26	/
O=C(OCCN1CCCC1=O)c1sc2cc(Cl)ccc2c1Cl
 : 70	106	-56	/
C=CCN(Cc1nc(-c2ccc(C)cc2)no1)C(=O)Nc1ccccc1C
 : /	/	-17	103
CCc1nc(-c2cc(S(=O)(=O)N3CCN(c4ccccc4OC)CC3)ccc2OC)no1
 : 97	83	-3	103
COc1ccc(S(=O)(=O)[C@H]2CS(=O)(=O)C[C@@H]2NCC2CCCO2)cc1 (some centres undefined)
 : /	/	-9	99
Cc1noc(C)c1COc1cccc(C(=O)OCN2C(=O)c3ccccc3C2=O)c1
 : 82	93	-8	/
O=C(CCC(=O)c1cccs1)Nc1cc(Cl)cc(Cl)c1
 : 104	74	-8	/
CCOc1ccc(-c2nonc2NC(=O)C(CC)CC)cc1C
 : /	/	-6	107
OCc1nc2ccccc2n1CCOc1ccc(Cl)cc1
 : /	/	-28	104
COc1ccc(CNC(=O)C2=CC(c3ccc(OC)c(OC)c3)=NS(=O)(=O)N2C)cc1
 : 81	90	-29	106
CCN1CCn2c3c(c4cc(Cl)ccc42)CCCC31 (centres undefined)
 : 114	76	/	104
CC(=O)Oc1ccc(-c2ccc(C(=O)O)cc2)cc1C
 : 103	93	-9	/
COCN1C(=O)c2cc(Cl)c(Cl)cc2C1=O
 : 97	85	-45	/
CCOC(=O)c1c(NC(=O)COc2ccccc2F)sc2c1CCCC2
 : 96	96	-23	107
CC(C(=O)Nc1ncccn1)(c1ccccc1)c1ccccc1
 : 107	91	-19	103
COc1ccc(CC2CCC3(CC2)NC(=O)c2ccccc2O3)cc1 (centres undefined)
 : 100	85	-20	101
CC(C)NC(=O)CSc1nnc(-c2ccncc2)o1
 : /	/	12	105
Cc1cccc2c(=O)c(NC(=O)N3CCC(C(N)=O)CC3)c[nH]c12
 : 96	99	13	108
COc1cc(OC)c(OC)cc1/C=N/n1c(C)nnc1-n1nc(C)cc1C
 : 84	84	-48	100

# Later entries:
# Value order – Sa growth inh	Sa growth inh second temp	HCMV UL50-53 inh	GIV Gai3 FP
CCCCCc1c(C)nc(-c2ccccn2)[nH]c1=O
 : 1.7*	1.8*	-26	105
COc1ccc(S(=O)(=O)N2CCC(C(=O)O)CC2)cc1
 : 95	94	8	105
CCOC(=O)N1CCC(NC(=O)c2ccc3c(c2)N(Cc2cccc(Cl)c2)C(=O)c2ccccc2S3=O)CC1 (centres undefined)
 : 102	101	7	98
CC(=O)Oc1ccccc1C(=O)NCc1ccc(C)cc1
 : 59	28	-12	/
Cn1cc(S(=O)(=O)c2ccccc2)c(=O)c2cc(F)c(N3CCN(Cc4ccccc4)CC3)cc21
 : /	/	6	102
Cn1nc(C(=O)NCc2ccc3c(c2)OCO3)c2c1-c1cc(Cl)ccc1SC2
 : /	/	-12	105
COc1ccccc1C(=O)Nc1ccc2oc(-c3ccccc3Br)nc2c1
 : /	/	-4	98
CN1CCN(c2ccc(CNS(=O)(=O)c3ccc(-c4ccno4)s3)cc2)CC1
 : 104	102	3	111
CC(NC(=O)CSc1nnc(-c2ccncc2)o1)c1nc2ccccc2[nH]1 (centres undefined)
 : /	/	-24	94
CC1(C)CC(=O)C(C(c2ccc(F)cc2O)C2C(=O)CC(C)(C)CC2=O)C(=O)C1
 : 99	90	-5	/
COc1ccc(CC(=O)N2CCc3cc(-c4noc(C)n4)ccc32)cc1
 : /	/	-23	107
CCOC(=O)c1cccnc1SCC(=O)N(CC)c1cccc(C)c1
 : 101	91	/	101
Cc1ccc(S(=O)(=O)Nc2c(-n3cnnc3)nn(C)c2C)cc1
 : /	/	7	100
CC(C)(C)NC(=O)CSc1nncn1NCc1ccccc1
 : 94	88	-8	102
COc1ccc(NC(=O)CC2C(=O)N(c3ccc(F)cc3)C(=O)N2Cc2cccnc2)cc1 (centres undefined)
 : 103	92	/	111
COc1ccc(OC)c(C2C(C(=O)Nc3nc4ccccc4s3)=C(C)NC3=C2C(=O)CC(C)(C)C3)c1 (centres undefined)
 : /	/	-2	105
CCOC(=O)c1ccc(N/C=C/C(=O)C(C)(C)C)cc1
 : 110	94	-16	100
O=C(O)C1Nc2ccc(Cl)cc2C2C=CCC12 (centres undefined)
 : /	/	49	94
CCOC(=O)C1C(=O)Oc2ccc(Br)cc2C1C1(C(=O)OC)CCCCC1 (centres undefined)
 : 57	34	/	101
O=C(OCCN1C(=O)c2ccccc2C1=O)c1cccc(C(F)(F)F)c1
 : 82	90	-12	/
CN1CCSc2ccc(C(=O)Nc3cc(F)ccc3F)cc21
 : 89	81	1	107
COc1ccc(OCC(=O)N(C)CC2COc3ccccc3O2)cc1 (centres undefined)
 : 91	91	-23	/
